# CSC inhib = blocks cancer stem cells; inhibition, % at 7.5 µM; actives 1.1% (n = 300,000); AID 2717; cancer stem cell-like cells viability, luminescence;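 active = mean at 75% or more and at least half the replicates too; tested in HMLE shEcad cells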;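 note: 0% = median of negative and 100% = median of positive control wells; the first replicate is given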
# HIV Env fusion = blocks HIV Env-driven cell-cell fusion; HeLa-JRFL Env/CEM21 cell fusion, luciferase; inhibition, % at 12.3 µM; actives 1.1% (n = 360,000); AID 651610;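 active = mean replicate inhibition score of at least 50 and every replicate individually at or above 50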;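 note: 0% = plate neutral controls and 100% = maraviroc near 300 nM; one replicate is shown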
# eIF4H FP inh = inhibitors of RNA binding by human eIF4H | Q15056 | eIF4H fluorescence polarization binding assay | inhibition, % at 35 µM | actives 0.94% (n = 290,000) | AID 2012;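 active = 50% or more with normal probe brightness, or confirmed in later tests; about a fifth of its hits are not listed in these tables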;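 note: calls also rest on retests at 20 µM and on dose response follow-up; 0% = protein and probe with vehicle and 100% = probe without protein; strong numbers were not always called active; many hits fall short of the cut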
# MT1-MMP act inh = inhibitors of human MT1-MMP activation; HT1080 RFP-PRO-GFP cells, GFP/RFP ratio fluorescence, overnight; percent of plate control window, DMSO zero; GFP/RFP ratio change, % at 20 µM; actives 0.061% (n = 360,000); AID 651647;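 active = GFP/RFP ratio change of at least 30% with cell ATP level not reduced by more than half and red fluorescence within 50% of control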; note: strong numbers were not always called active
#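 Assay system: HT1080 RFP-PRO-GFP cells | Dosing: 20 µM single dose, 1% DMSO | Incubation: Cells overnight before dosing, compound overnight, 37 °C, 5% CO2 | Evaluation: GFP/RFP fluorescence ratio | Control set: DMSO-only wells and HT1080 RFP-L50D-GFP cell wells as references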
# Rce1 inhib = inhibitors of yeast Ras-converting enzyme; yeast membranes, quenched prenylated peptide cleavage fluorescence; calls only; actives 0.27% (n = 290,000);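 active = fall in fluorescence gain of 50% or more versus controls, with final raw signal at or below 3038400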;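 note: plate controls were neutral control wells for no effect and wells lacking membranes for full effect; tested at 10 µM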
# Target sequence (Q03530 whole entry, looked up): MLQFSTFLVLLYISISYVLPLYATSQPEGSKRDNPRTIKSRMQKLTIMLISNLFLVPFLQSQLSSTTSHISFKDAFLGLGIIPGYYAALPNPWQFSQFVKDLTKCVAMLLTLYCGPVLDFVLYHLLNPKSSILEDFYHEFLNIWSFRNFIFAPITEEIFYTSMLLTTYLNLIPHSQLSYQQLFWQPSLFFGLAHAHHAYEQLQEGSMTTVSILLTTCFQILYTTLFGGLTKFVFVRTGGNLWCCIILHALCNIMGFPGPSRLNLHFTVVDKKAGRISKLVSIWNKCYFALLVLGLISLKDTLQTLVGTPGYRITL
# UUG fidelity = yeast start codon fidelity modulation; S. cerevisiae UUG-firefly luciferase reporter, luminescence/redox ratio; activity score, % at 18.7 µM; actives 0.13% (n = 350,000); AID 602363;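 active = replicate mean at a twofold rise or more, about +100% in these data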;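 note: firefly luciferase made from a UUG start codon reports start codon fidelity; reporter light over untreated wells divided by growth signal over untreated wells; some hits fall short of that in this replicate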
# PABP polyA inh = blocks human PABP binding to poly(A) RNA; P11940; fluorescence polarization; inhibition, % at 35 µM; actives 1% (n = 290,000);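 active = 50% or more with normal probe brightness, or confirmed in later tests; about a fifth of its hits are not listed in these tables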;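 note: calls also rest on retests at 20 µM and on dose response follow-up; controls were probe without protein and protein plus probe with vehicle; some compounds called inactive have numbers as strong as hits; many hits fall short of the cut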
# Target sequence (P11940 whole entry, looked up): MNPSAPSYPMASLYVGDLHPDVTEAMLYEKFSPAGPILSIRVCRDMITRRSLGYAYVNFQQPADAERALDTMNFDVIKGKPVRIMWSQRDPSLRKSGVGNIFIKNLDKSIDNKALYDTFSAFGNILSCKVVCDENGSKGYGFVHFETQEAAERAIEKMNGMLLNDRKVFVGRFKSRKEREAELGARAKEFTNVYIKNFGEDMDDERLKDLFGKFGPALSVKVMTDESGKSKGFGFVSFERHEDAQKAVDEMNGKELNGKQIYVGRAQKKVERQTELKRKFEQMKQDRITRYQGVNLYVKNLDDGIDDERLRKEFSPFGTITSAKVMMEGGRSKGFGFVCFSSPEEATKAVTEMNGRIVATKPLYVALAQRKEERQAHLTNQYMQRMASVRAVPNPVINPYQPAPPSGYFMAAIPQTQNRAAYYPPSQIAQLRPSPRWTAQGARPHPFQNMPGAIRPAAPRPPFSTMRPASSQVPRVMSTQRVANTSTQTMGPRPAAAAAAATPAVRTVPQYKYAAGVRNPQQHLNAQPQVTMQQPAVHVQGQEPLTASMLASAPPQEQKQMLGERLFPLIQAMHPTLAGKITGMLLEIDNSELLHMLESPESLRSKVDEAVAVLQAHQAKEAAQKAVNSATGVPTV
# eIF4H FP inh retest = further read-out of eIF4H FP inh, marked with its call; inhibition, %; compound at 20 µM; confirmation average;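 mean of two retest wells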
# PABP polyA inh retest = recorded beside PABP polyA inh, whose call it bears; inhibition, %; compound at 20 µM; confirmation repeats;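 mean of two retest wells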
# MT1-MMP act inh RFP = also measured in MT1-MMP act inh; calls as there; RFP signal change, %; measured here: RFP expression control read;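 0 = vehicle wells; hits needed this value within 50% of zero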
# Active calls of the source: *; i = inactive; . = not tested or not shown.
SMILES,CSC inhib,HIV Env fusion,eIF4H FP inh,MT1-MMP act inh,MT1-MMP act inh RFP,Rce1 inhib,UUG fidelity,PABP polyA inh,others
NC(=O)c1ccc[n+](Cc2cccc3ccccc23)c1,-4,-72,-7,0,-2,i,4,6,
CC(=O)Nc1ccc(Nc2cc(N(C)C)c3nonc3c2[N+](=O)[O-])cc1,-4,-14,1,6,1,i,-3,11,
O=C(CN1C(=O)/C(=C/c2ccco2)SC1=S)Nc1ccc(C(=O)O)c(O)c1,0,-6,92*,17,35,i,-13,82*,
CCOc1cc(C(=O)Nc2ccc(S(=O)(=O)Nc3nnc(CC)s3)cc2)cc(OCC)c1OCC,-4,0,-2,6,-3,i,-3,8,
COCCNc1ncnc2c1ncn2[C@H]1CN(Cc2ccc(Cl)cc2)C[C@@H](CO)O1,.,-33,.,2,3,.,-17,.,
COC(=O)c1cc(NC(=O)CSC2=NCCS2)cc(C(=O)OC)c1,-9,-47,2,-1,-3,i,.,-2,
CCn1c2ccccc2c2cc(NC(=O)CC(C)=O)ccc21,.,-12,3,-2,1,i,-13,-4,
CCOc1cc(C2C3=C(CCCC3=O)N(CCC(=O)O)C3=C2C(=O)CCC3)ccc1OS(=O)(=O)c1ccc(C)cc1,5,-20,13,-4,4,i,2,8,
COc1ccc(NC(=O)CC(Cc2ccccc2)C(=O)O)cc1 (stereo not drawn),-7,-47,3,4,-1,i,3,0,
COc1ccc(OC)c(CC(NC(C)=O)C(=O)NC2CCN(c3nc(OC)nc(OC)n3)CC2)c1 (stereo not drawn),-10,2,4,0,-2,i,.,9,
Cc1cc(C)c(S(=O)(=O)NCCSCc2ccco2)c(C)c1,7,-7,.,-3,0,.,-1,.,
CNC(=O)N(C1=NCC(C)S1)c1ccc(F)cc1F (stereo not drawn),-9,24,-1,2,2,i,-3,-9,
Cc1ccc(C2CC(C(F)F)n3ncc(C(=O)Nc4cnn(Cc5ccccc5C)c4)c3N2)cc1 (stereo not drawn),36,.,9,-6,-10,i,-17,8,
CCC(=O)N1CCc2cc(S(=O)(=O)CCC(=O)NC3CCCCC3)ccc21,-17,-1,0,4,5,i,-16,-6,
CCCCC(CC)C(=O)Nc1ccc(S(=O)(=O)Nc2nccs2)cc1 (stereo not drawn),-18,0,-2,2,2,i,-13,-4,
CC(C)=CCCC(C)CN1CCC(O)CC1 (stereo not drawn),2,0,-7,1,4,i,-12,-11,
COc1ccc(OCCOC(=O)CN2C(=O)NC3(CCCC3)C2=O)cc1,.,16,.,-2,-1,i,-11,.,
CC1(C)Cc2cccc(OCC(=O)N3CCN(c4ccccc4F)CC3)c2O1,-6,0,.,3,-3,i,.,.,
CCN1C(=O)[C@H]2[C@@H](c3ccc(-c4ccc(F)cc4)c(OC)c3)N[C@@](C)(C(=O)OC)[C@H]2C1=O,1,15,.,-3,-6,i,8,.,
C=CCNC(=O)C1CC(=O)N(c2ccc(OCC(=O)Nc3ccc(Cl)c(C(F)(F)F)c3)cc2)C1 (stereo not drawn),-8,18,-2,-6,-6,.,-12,-8,

# Reprinted at random: six compounds from above.
SMILES,CSC inhib,HIV Env fusion,eIF4H FP inh,MT1-MMP act inh,MT1-MMP act inh RFP,Rce1 inhib,UUG fidelity,PABP polyA inh,others
Cc1cc(C)c(S(=O)(=O)NCCSCc2ccco2)c(C)c1,7,-7,.,-3,0,.,-1,.,
O=C(CN1C(=O)/C(=C/c2ccco2)SC1=S)Nc1ccc(C(=O)O)c(O)c1,0,-6,92*,17,35,i,-13,82*,
CNC(=O)N(C1=NCC(C)S1)c1ccc(F)cc1F (stereo not drawn),-9,24,-1,2,2,i,-3,-9,
COc1ccc(OCCOC(=O)CN2C(=O)NC3(CCCC3)C2=O)cc1,.,16,.,-2,-1,i,-11,.,
CCOc1cc(C(=O)Nc2ccc(S(=O)(=O)Nc3nnc(CC)s3)cc2)cc(OCC)c1OCC,-4,0,-2,6,-3,i,-3,8,
CCN1C(=O)[C@H]2[C@@H](c3ccc(-c4ccc(F)cc4)c(OC)c3)N[C@@](C)(C(=O)OC)[C@H]2C1=O,1,15,.,-3,-6,i,8,.,

# The list goes on.
SMILES,CSC inhib,HIV Env fusion,eIF4H FP inh,MT1-MMP act inh,MT1-MMP act inh RFP,Rce1 inhib,UUG fidelity,PABP polyA inh,others
CC(=O)Oc1ccc(-c2ccc(C(=O)OCC(=O)N(C)CC(=O)Nc3ccccc3Cl)cc2)cc1,4,5,-4,0,1,i,-3,12,
COc1ccc(N(CC(=O)Nc2ccc(S(=O)(=O)N3CCCC3)cc2)S(C)(=O)=O)cc1OC,-11,-9,-3,0,-3,i,10,7,
CC1=C(C(=O)OCc2ccc3c(c2)OCO3)C(c2ccccc2OCc2ccccc2)NC(=O)N1 (stereo not drawn),19,61*,8,15,-15,i,.,-3,
Cc1ccc(CN2C(=O)CNC2=S)cc1,-8,1,-3,-6,3,i,-23,-8,
COC(=O)COc1cccc(NC(=O)c2cc(OC)cc(OC)c2)c1,-5,14,7,1,1,i,2,6,
O=C(Nc1cccn(Cc2c(Cl)cccc2Cl)c1=O)c1ccc(Cl)cc1Cl,13,-42,-3,-6,-23,i,-8,-5,
O=C(Nc1cccc(-c2csc(Nc3cccc(C(F)(F)F)c3)n2)c1)c1cc([N+](=O)[O-])cc(C(F)(F)F)c1,62,15,7,1,-18,i,-3,-6,
CCCCCCn1c(SCCOC)nc2c1c(=O)[nH]c(=O)n2C,-18,6,-15,2,0,i,-4,4,
Nc1nc(N)c2cc(Sc3ccc4ccccc4c3)ccc2n1,119*,24,-6,-10,-15,i,-18,-5,
Cc1ccc(NC(=O)c2ncn(CCCNCCCN(C)C)n2)cc1C,.,-6,.,6,7,.,-8,.,
CC(C)(C)c1cc(NC(=O)Nc2ccccc2)no1,.,-54,-3,0,-1,i,-13,-6,
COc1ccc2nc(-c3ccccc3)[nH]c(=O)c2c1,.,-24,.,0,-3,.,-20,.,
COc1ccccc1/C=C/C1(C(=O)NC2CCCC2)CC(=O)N1c1ccccc1 (stereo not drawn),51,18,1,-3,-14,i,-14,-18,
O=C(NCc1ccncc1)c1cc(-c2ccc(Cl)cc2)oc1C(F)(F)F,23,-21,0,11,-16,i,-24,3,
Cc1ccc(OCCNC(=O)Cn2cnc3c(=O)n(C)c(=O)n(C)c32)cc1C,-11,24,-4,1,-4,i,-9,-2,
O=C(CN(C(=O)C1COc2ccccc2O1)c1ccccc1)NCC1CCCO1 (stereo not drawn),-1,.,1,9,1,i,-2,2,
COc1ccc(N(CC(=O)N2CCCCCC2)S(C)(=O)=O)cc1Cl,-12,9,7,0,1,i,17,4,
O=C(Nc1ccc2c(c1)OCO2)c1csc([C@@H]2C[C@H](O)[C@@H](CO)O2)n1,.,36,.,4,6,.,-20,.,
Cc1cnc(NC(=O)Cn2cnc3c2c(=O)n(C)c(=O)n3C)s1,-1,15,-2,-1,4,i,-2,7,
CN(Cc1ccsc1)C(=O)CCc1nnc(CCCc2ccccc2)o1,-18,-15,-2,8,4,i,-3,0,
O=C(CC12CC3CC(CC(C3)C1)C2)NCC(c1ccc(F)cc1)N1CCOCC1 (stereo not drawn),.,16,1,-3,-1,i,10,6,
COc1ccc(Nc2nc(-c3cccs3)cs2)cc1,-18,-402,21,.,.,i,.,-12,
Cc1ccc(S(=O)(=O)NCCC(=O)N2CCOCC2)cc1C,-1,1,.,-3,3,i,.,.,
CCOc1ccc(-c2c(C(=O)N/N=C/c3ccccc3)nnn2-c2nonc2N)cc1,-4,-2,-5,0,0,i,.,1,
Cc1ccc(Cl)cc1Nc1nc(-c2sc(NC(=O)C(C)(C)C)nc2C)cs1,1,18,-10,1,-10,i,-10,-7,
CCOc1ccccc1CNC(=O)Cn1ccc2cc(S(=O)(=O)N3CCC(C)CC3)ccc21,64,.,-6,-8,-10,i,-22,1,
Cc1cccc(C)c1OCc1cc(C(=O)NCc2ccc(Cl)s2)no1,5,2,-3,0,4,i,-13,-14,
O=C(COC(=O)c1cccc(S(=O)(=O)N2CCOCC2)c1)Nc1ccc2c(c1)OCO2,-2,.,-5,1,3,i,-6,-7,
CCc1nnc(NC(=O)CN2CCN(Cc3ccccc3C)CC2)s1,-13,-60,4,3,7,i,-15,-3,
Cc1ccc([C@@H]2C[C@H]3[C@@H](CN2S(=O)(=O)c2ccc(C)cc2)C(=O)C[C@@H](c2ccc(C)cc2)N3S(=O)(=O)c2ccc(Cl)cc2)cc1,.,-21,.,-5,-3,.,-11,.,
O=C(COC(=O)c1cc(Cl)ccc1O)Nc1cc(C(F)(F)F)ccc1N1CCOCC1,-6,4,.,-2,-1,.,-15,.,
Cc1ccc(C(=O)N/C(=C/c2cccc([N+](=O)[O-])c2)C(=O)NCC2CCCO2)cc1 (stereo not drawn),12,12,-3,0,3,i,.,6,
CCc1nc(SCC(=O)NNC(=O)C2CCCCC2)c2ccccc2n1,-12,9,-3,2,2,i,-16,-10,
Cc1ccc(N2C(=O)CC(N(O)C3CC(=O)N(c4ccc(C)cc4)C3=O)C2=O)cc1 (stereo not drawn),-12,-61,-9,6,5,.,.,-5,
Cc1cc(C)c2cc(CN(CCCO)S(=O)(=O)c3ccccc3F)c(=O)[nH]c2c1,-51,3,3,-3,0,i,-11,-5,
COC(=O)CSC1=C(C#N)C(c2ccc(C)cc2)C2=C(CCCC2=O)N1 (stereo not drawn),.,.,6,15,-1,i,4,5,
NS(=O)(=O)c1ccc(NC(=O)COC(=O)c2ccco2)cc1,-9,-4,-10*,1,2,i,-9,71,eIF4H FP inh retest=80*;PABP polyA inh retest=14
O=C(C[C@@H]1NS(=O)(=O)OC2CCCCC21)c1ccccc1 (stereo partly drawn),5,33,-2,0,1,i,-41,-6,
O=C(CC1C(=O)NCCN1C(=O)Nc1ccccc1)Nc1cccc(C(F)(F)F)c1 (stereo not drawn),8,-46,-2,-5,-3,i,-1,0,
Cc1cc(C)cc(OCC(=O)N/N=C/c2ccco2)c1,-6,2,-7,2,8,i,-12,-4,
O=c1cc(O)c2c(=O)n(-c3ccccc3)c3c(c2o1)CCCCCC3,-10,-8,-6,-5,2,i,6,2,
Cc1ccc(NC(=O)CC(O)(C(F)(F)F)C(F)(F)F)c(Br)c1,-2,.,1,7,-1,i,-4,9,
Cc1cccc(NS(=O)(=O)c2cc3c(cc2C)N(C)CCO3)c1,1,-14,-12,8,-2,i,-4,-10,
COc1ccc(CCNc2ncnc3cc(OC)c(OC)cc23)cc1OC,.,6,-7,1,-13,i,.,-1,
CC1CCCCN1S(=O)(=O)c1ccc(C(=O)Nc2nnc(C3CC3)o2)cc1 (stereo not drawn),26,-5,10,1,-1,i,-21,-10,
O=C(Nc1cccc(O)c1)c1ccccc1,3,-41,8,4,0,i,-31,-1,
COc1ccc(NC(=O)CSc2nnc(Cn3cnc4ccccc43)o2)cc1,-10,-4,3,0,1,i,-17,-8,
O=C(O)CC1C(=O)NCCN1Cc1cccs1 (stereo not drawn),-4,4,7,3,7,i,.,-4,
Cc1ccc(SCc2cn3cc(Cl)ccc3n2)cc1,5,-19,1,-2,1,i,.,14,
CCN(CC)S(=O)(=O)c1ccc(C)c(NC(=O)CNc2cccc(S(=O)(=O)N3CCCC3)c2)c1,-6,20,.,-8,-23,i,-1,.,
O=C(/C=C/Nc1ccc(S(=O)(=O)Nc2ncccn2)cc1)c1ccc(Cl)c(Cl)c1,4,-5,-12,-6,2,i,-15,-8,
COc1cc(C)c(C)cc1S(=O)(=O)N1CCCCC1c1cccnc1 (stereo not drawn),.,.,10,2,1,i,-14,11,
COc1cc2nc(CN(CCC(C)C)Cc3nc4cc(OC)c(OC)cc4c(=O)[nH]3)[nH]c(=O)c2cc1OC,0,.,1,4,0,i,-3,3,
COc1ccc(CC(=O)Nc2cccc(SC)c2)cc1,-9,12,5,13,-1,i,.,2,

# High-throughput results: PubChem BioAssay, several laboratories

# A portion of the library (hit frequency here may not be typical).
